BmaI1: BmaI1 acyl-homoserine lactone synthase inhibition – biochemical, fluorescence intensity, with counterscreen (AID 720554). BmaI1 enzyme assay, fluorescence intensity; stronger effect = higher value; test concentration not given here; a few actives read low; strong numbers were not always called active. inhibition, %. hit rate 0.4% among 12,000;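 active means both replicates within 2 robust z-scores of the inhibited control and a quiet counterscreen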;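 further: 0% = uninhibited enzyme and 100% = inhibited control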
BmaI1 counterscreen: further read-out of BmaI1, marked with its call; inhibition, %; measured here: counterscreen; design of the counterscreen not given here;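 first of two replicates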
An asterisk follows results filed as active; & = joins results of further samples. Some of the compounds tested; rates above refer to the full screens.

SMILES	BmaI1	BmaI1 counterscreen
CC(=O)Nc1nc(COC(=O)c2cc(=O)[nH]c3ccccc23)cs1	10	14
N#Cc1c(SCC(=O)NCC2CCCO2)nc2c(c1-c1ccco1)CCCC2 (centres undefined)	17	5
CN(C)S(=O)(=O)c1cccc(CSc2nnc(N)s2)c1	10	9
Cc1[nH]cnc1CN1CCc2c(c3ccccc3n2C)C1=O	4	0
CC1CCN(c2cn[nH]c(=O)c2Br)CC1	10	2
CCc1cc2c(COC(=O)C3CC(=O)N(Cc4ccco4)C3)cc(=O)oc2cc1O (centres undefined)	15	10
O=C(COc1cc(C(F)(F)F)cc(C(F)(F)F)c1)Nc1ccc2c(c1)OCO2	4	8
O=C(CCOc1ccccc1)Nc1ccccc1N1CCOCC1	8	10
CN(C)C(=O)CSc1ccccc1C(=O)O	8	5
CC1=C/C(=N\Nc2ccc(C(=O)O)cc2)CC1	75	12
N#Cc1ccccc1CSCCNc1ncnc2c1oc1ccccc12	13	2
O=C(CSc1n[nH]c(=O)n1C1CC1)NC1CCCC1	26	6
C/C(=N\NC(=O)C1CC1)c1ccccc1O	32	4
COc1cccc(NC(=O)COC(=O)c2cccc(S(=O)(=O)N(C)C)c2)c1	18	-6
O=c1c2cnn(-c3ccccc3)c2ncn1/N=C/c1ccncc1	8	3
ON=C1CCC2CC1CC/C2=N\O	14	14
CCOC(=O)/C=c1\[nH]c(=O)/c(=C\c2ccc(C)s2)s1	6	9
CN(C)S(=O)(=O)c1ccc2c(c1)nc(CCC(=O)Nc1ccc3c(c1)OCO3)n2C	10	4
O=C(c1ccccc1C(F)(F)F)N1CCc2ccccc21	2	4
O=S(=O)(c1ccc(F)cc1)N(Cc1ccc2c(c1)OCO2)S(=O)(=O)c1ccc(F)c(F)c1	17	14
Cc1noc(C)c1Cn1nnc(-c2cccc(C(F)(F)F)c2)n1	15	8
COC(=O)c1sc(S(=O)(=O)Nc2ccc3cn[nH]c3c2)c(C(=O)OC)c1C	18	15
O=C(Cc1ccccc1)Nc1ccccc1N1CCCC1	12	-1
CC(C(=O)N1CCc2ccccc21)N1CCN(S(=O)(=O)/C=C/c2ccccc2)CC1 (centres undefined)	12	2
Cc1nn(-c2ccccc2)c(C)c1CCC(=O)Nc1ccc(S(C)(=O)=O)cc1	16	14
O=C(CC1Sc2ccccc2NC1=O)OCC(=O)N1CCN(S(=O)(=O)c2ccccc2)CC1 (centres undefined)	13	7
COC(=O)c1ccc(COC(=O)c2cc3c(s2)CCCCC3)o1	18	4
Cc1cc(C(=O)CSC(C)c2nc3ccccc3c(=O)[nH]2)c(C)n1C (centres undefined)	18	11
CC(C)=CC1C(C(=O)NN)C1(C)C (centres undefined)	14	5
CS(=O)(=O)CCC1NC(=O)NC1=O (centres undefined)	10	2
Cc1cc(OC(=O)c2cccs2)n(Cc2ccc(Cl)cc2Cl)n1	20	6
O=C(OCc1cc(=O)oc2cc(O)ccc12)C1CC2CCCC(C1)C2=O (centres undefined)	22	11
C[C@H]1[C@@H](OC(=O)CCC(=O)O)O[C@@H]2OC3(C)CC[C@H]4[C@H](C)CC[C@@H]1[C@@]24OO3	-5	-4
COC(=O)CNC(=O)C1CC1	16	0
Cc1cccc(C)c1-n1nnnc1SCc1cc(Cl)c2c(c1)OCCO2	-12	-12
CCOc1ccccc1Nc1nnc(SCCC#N)s1	4	5
CC(C)C(C)(C#N)NC(=O)CSc1nnc(-c2cccs2)n1N (centres undefined)	-3	-6
CC(C(=O)Nc1ccc(Cl)cc1)N(C)Cc1cccs1 (centres undefined)	11	-4
Cc1ccc2c(CN3c4ccccc4CC3C)cc(=O)oc2c1 (centres undefined)	7	4
O=C(NCC(c1ccco1)N1CCCCC1)c1cccs1 (centres undefined)	10	9
COC(=O)c1cc(COC(=O)c2ccc3[nH]c4c(c3c2)CCCC4)oc1C	8	4
O=C(CONC(=O)C12CC3CC(CC(C3)C1)C2)N1CCc2ccccc21	4	2
O=C1CSC(c2ccco2)N1Cc1ccccc1 (centres undefined)	6	0
CCOC(=O)c1sc(N)c(C#N)c1COC(=O)c1c(C)nn(-c2ccccc2)c1Cl	20	-9
Fc1ccc(Oc2ncccn2)c(Cl)c1	10	10
Cc1ccc(-c2csc(=Nc3cccnc3)n2CCCN2CCCC2=O)cc1C	16	6
Cc1cc(C(=O)CSc2nnc(N)s2)c(C)n1-c1c(C)n(C)n(-c2ccccc2)c1=O	12	14
CN(C)S(=O)(=O)c1ccc(C(=O)NCCN2C(=O)CSC2=O)cc1	10	12
CN1CCN(C2=Nc3ccccc3Oc3ccc(Cl)cc32)CC1	2	10
COCOC(=O)c1c(-c2ccccc2Cl)noc1C	24	10
N#CC(c1nc2ccccc2nc1N1CCOCC1)S(=O)(=O)c1ccccc1 (centres undefined)	18	13
CC(C#N)Sc1ncnc2ccccc12 (centres undefined)	22	11
CCOc1cc(C(=O)OCC(=O)Nc2cccc(C)c2)ccc1OCC(=O)N1CCOCC1	4	-1
Cc1cc(C(=O)COC(=O)c2nccnc2N)c(C)n1C	-2	7
O=C(CCN1C(=O)c2ccccc2C1=O)OCC(=O)c1ccc2c(c1)OCCO2	-1	-6
O=S(=O)(N/N=C/C1=C(N2CCOCC2)C(=C\c2ccccc2)/CC1)c1ccccc1	58	-2
Cn1c(C(C#N)C(=O)c2cccc(N3C(=O)c4ccccc4C3=O)c2)nc2ccccc21 (centres undefined)	6	-2
CCOc1ccc(S(N)(=O)=O)cc1OCC	14	13
Cc1nc(SCC(=O)c2ccc3[nH]c(=O)[nH]c3c2)c2ccccc2n1	30	18
Cc1cc(C(=O)COC(=O)Cn2cnnn2)c(C)n1CC1COc2ccccc2O1 (centres undefined)	20	10
Carrying on:
SMILES	BmaI1	BmaI1 counterscreen
COc1cc(N)c(Cl)cc1C(=O)OCC(=O)N(C)c1ccccc1	16	18
CC(=O)SCC(Cc1ccccc1)C(=O)NCC(=O)OCc1ccccc1 (centres undefined)	-1	10
C#CCN(C)[C@H](C)Cc1ccccc1	8&10	12&44
O=C(CSc1ncn[nH]1)N1CCN(S(=O)(=O)c2ccccc2)CC1	-9	-7
COc1ccc(CN(C)Cc2cccc(S(=O)(=O)N(C)C)c2)c(OC)c1OC	-4	-4
OCc1nc2ccccc2n1CN1CCN(Cc2cccs2)CC1	7	2
CN(CC(=O)Nc1ccc(F)c(F)c1F)C(=O)C1CCCCC1	10	8
CC(C)OC(=O)c1ccc(CN2C(=O)NC(CCc3ccccc3)C2=O)o1 (centres undefined)	2	1
O=C(C1=NN(C2CCS(=O)(=O)C2)C(=O)CC1)N1CCc2ccccc2C1 (centres undefined)	8	1
CCOC(=O)c1sc(N(Cc2ccccc2)C(=O)CSc2nnc3n2CCCCC3)nc1C	6	-1
CCn1c(O)c(C=Nc2ccc3[nH]ncc3c2)c(=O)n(CC)c1=S	16	16
CN=C1SC(CC(=O)Nc2ccc(F)cc2F)C(=O)N1/N=C(\C)c1cccc(-n2cnnn2)c1 (centres undefined)	3	12
N#CC(Cc1ccccc1)Sc1nnc2sc3ccccc3n12 (centres undefined)	19	-4
Cc1ccc2nc(NC(=O)c3nc(-c4ccccc4)oc3C)sc2c1	4	3
Cc1noc(C)c1COc1ccc(C(=O)OCC(=O)NC23CC4CC(CC(C4)C2)C3)cc1	8	-1
O=C(Cn1cnc2ccccc2c1=O)NCCSCc1ccco1	16	4
N=C1C(c2nc3ccccc3[nH]2)=C(O)CN1CCN1CCOCC1	-12	-4
O=C(OCC(=O)N1CCCCC1)c1ccc(I)cc1	-10	-6
CCOC(=O)C1CCCN(C(=O)c2ccc(C)cc2O)C1 (centres undefined)	12	18
Cc1nc2scc(C)n2c1/C=N/NC(=O)CSc1cccc2cccnc12	15	4
CNC(=O)COc1cccc2c1OC(C)(C)C2	13	11
COC(=O)c1cc(OC)c(OC)c(OC)c1-n1c(C)cc(C(N)=O)c1C	-7	3
N#CCOC(=O)c1cn(-c2ccccc2)nc1-c1ccccc1	2	6
CCOC(=O)C1=C(CC)Nc2ccccc2N=C1NC(=O)c1nc2nccc(C)n2n1	5	12

Arranged by molecular weight (descending): three of the compounds above.
SMILES	BmaI1	BmaI1 counterscreen
O=C(OCC(=O)N1CCCCC1)c1ccc(I)cc1	-10	-6
COC(=O)c1cc(OC)c(OC)c(OC)c1-n1c(C)cc(C(N)=O)c1C	-7	3
CNC(=O)COc1cccc2c1OC(C)(C)C2	13	11

The list continues:
SMILES	BmaI1	BmaI1 counterscreen
O=C1OCCC1OC(=O)C1(c2ccc(F)cc2)CCCC1 (centres undefined)	5	1
c1cc2c(cc1C1=NCCC1)OCCO2	18	17
O=C(COC(=O)[C@@H]1CCCN1S(=O)(=O)c1ccc(Cl)cc1)NCc1ccc2c(c1)OCO2	13	-3
N#C/C(=C(/O)CCN1C(=O)c2ccccc2C1=O)c1nc2ccccc2s1	13	8
CSc1nc2nc(C)c(CCC(=O)OCC(=O)Nc3ccc(F)cc3)c(C)n2n1	14	10
CCOc1cc(C(=O)Nc2ccc(OC)nc2)ccc1OCC(=O)N1CCCCC1	4	4
O=C(c1cc(C2CC2)nn1-c1ccccc1)N(Cc1ccco1)Cc1cccs1	16	10
COc1ccc2c(COC(=O)Cn3cnnn3)cc(=O)oc2c1	2	4
CC(NC(=O)CSc1ccccc1)c1ccc(S(N)(=O)=O)cc1 (centres undefined)	8	4
c1coc(C(CNc2ncnc3sc4c(c23)CCC4)N2CCCCC2)c1 (centres undefined)	-8	-7
O=C(OCc1ccccc1F)C1COc2ccccc2O1 (centres undefined)	21	12
Cc1cc(C)nc(SCc2ccccc2C(=O)N2CCN(Cc3ccc(C#N)cc3)CC2)n1	12	4
Cc1ccccc1CN(C)C(=O)c1ccc2ccccc2n1	-10	-12
O=C(Nc1ccc(Cl)cc1)C12CC3CC(CC(O)(C3)C1)C2	5	8
C/C(CN1C(=O)c2ccccc2C1=O)=N\Nc1ccccc1Cl	51	6
Nn1c(SCc2nnc(-c3ccccc3)o2)nnc1-c1ccncc1	5	2
NC(=O)NC(CC(=O)N1CCc2ccccc2C1)c1ccc(Cl)cc1 (centres undefined)	0	6
O=C(CNC(=O)c1ccccc1Cl)Nc1ccc(S(=O)(=O)N2CCOCC2)cc1	5	0
CC1CCCC(C)N1C(=O)COC(=O)C1CCCCC1 (centres undefined)	12	8
CC(C(=O)N1CCCCC1)N(C)CC(=O)Nc1ccc(Cl)c(C(F)(F)F)c1 (centres undefined)	14	11
CCN(Cc1ccncc1)S(=O)(=O)c1cc(/C=C/C(=O)O)cc(OC)c1OC	-5	-1
CC(=O)N1CCN(C(=O)COc2ccc(NC(=O)c3ccccc3)cc2)CC1	16	10
C=CCn1c(COc2cccc(C)c2)nnc1SCC(=O)N1CCNC1=O	11	1
COc1ccc(CCNCc2ccccc2O)cc1	8	5
Cc1cccc(N2CCN(C(=O)C(C)(C)Oc3ccc(Cl)cc3)CC2)c1C	1	0
CCN(CC)C(=O)c1cccc(NC(C)=O)c1	-12	4
Cc1ccc(C)c(NC(=O)CN2C(=O)C3CC=CCC3C2=O)c1 (centres undefined)	22	-4
Cc1cc(C(=O)CSc2nncs2)c(C)n1CC(F)(F)F	8	0
Cc1c(C(=O)NCCC(C)C)oc2ccc(Br)cc12	14	8
CN=C1CN(O)C(c2ccccc2)=c2cc(Cl)ccc2=N1	58	12
CC(C)(C)C1CCC(=NNc2ccc(C(=O)O)cc2)CC1 (centres undefined)	55	-3
CCCn1c(NC(=O)CCCc2nc3ccccc3c(=O)[nH]2)nc2ccccc21	17	4
O=C(OCc1cc(=O)n2ccsc2n1)C1(c2ccccc2)CC1	10	6
Cc1cccc(N(Cc2ccccc2)C(=O)CSc2nc(N)nc(N)n2)c1	7	2
CCOc1ccc(C(=O)NCC(=O)N2CCCC2)cc1	12	8
Cc1ccc2nc(CNc3ccc(Cl)cc3)cc(=O)n2c1	12	0
CCOC(=O)N1CCN(C(=S)NC(=O)c2cccc(OC)c2)CC1	10	13
CC(C)(C#N)N1CCOCC1	0	-2
CC(Sc1ccc2c(c1)OCCO2)C(=O)Nc1ccccc1C#N (centres undefined)	18	6
Cc1ccc(CC(C#N)Sc2nnc(COc3ccccc3Cl)n2C)cc1 (centres undefined)	20	4
O=C(NS(=O)(=O)c1ccc(Cl)cc1)C1CC1	-6	-6
C#CCOc1c(Cl)cc(CNCC2CN(CC(C)C)CCO2)cc1OC (centres undefined)	16	8
N#CCSc1ccccc1NC(=O)CN1C(=O)C2CC=CCC2C1=O (centres undefined)	8	10

Filtered by structure: the compounds so far with two or more sulfur atoms (15)
SMILES	BmaI1	BmaI1 counterscreen
CN(C)S(=O)(=O)c1cccc(CSc2nnc(N)s2)c1	10	9
CCOC(=O)/C=c1\[nH]c(=O)/c(=C\c2ccc(C)s2)s1	6	9
O=S(=O)(c1ccc(F)cc1)N(Cc1ccc2c(c1)OCO2)S(=O)(=O)c1ccc(F)c(F)c1	17	14
COC(=O)c1sc(S(=O)(=O)Nc2ccc3cn[nH]c3c2)c(C(=O)OC)c1C	18	15
O=C(CC1Sc2ccccc2NC1=O)OCC(=O)N1CCN(S(=O)(=O)c2ccccc2)CC1 (centres undefined)	13	7
CCOc1ccccc1Nc1nnc(SCCC#N)s1	4	5
CC(C)C(C)(C#N)NC(=O)CSc1nnc(-c2cccs2)n1N (centres undefined)	-3	-6
Cc1cc(C(=O)CSc2nnc(N)s2)c(C)n1-c1c(C)n(C)n(-c2ccccc2)c1=O	12	14
CN(C)S(=O)(=O)c1ccc(C(=O)NCCN2C(=O)CSC2=O)cc1	10	12
O=C(CSc1ncn[nH]1)N1CCN(S(=O)(=O)c2ccccc2)CC1	-9	-7
CCOC(=O)c1sc(N(Cc2ccccc2)C(=O)CSc2nnc3n2CCCCC3)nc1C	6	-1
N#CC(Cc1ccccc1)Sc1nnc2sc3ccccc3n12 (centres undefined)	19	-4
Cc1nc2scc(C)n2c1/C=N/NC(=O)CSc1cccc2cccnc12	15	4
CC(NC(=O)CSc1ccccc1)c1ccc(S(N)(=O)=O)cc1 (centres undefined)	8	4
Cc1cc(C(=O)CSc2nncs2)c(C)n1CC(F)(F)F	8	0

Assay outcomes deposited in PubChem by ICCB-Longwood Screening Facility, Harvard Medical School.
